Screens from PubChem BioAssay.
E coli growth: E. coli growth inhibition | Escherichia coli growth, OD600, 23 h; hits give low values | OD600 absorbance (no concentration beside the values) | actives 0.21% (n = 330,000) | AID 1053175;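 active = OD600 absorbance below the run mean of sample wells minus 3.6 SD, in any replicate, cut at about 0.56 in these data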;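 note: stock transfer was 300 nL into about 60 µL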
FGF22 binding: shifts melting point of recombinant human FGF22; actives 1.5% (n = 340,000); Q9HCT0; calls only at 9.99 µM; recombinant FGF22 thermal shift, SYPRO orange fluorescence; percent of sucrose octasulfate shift, DMSO zero; AID 651658;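 active = melting point raised past a set limit in the mean and every replicate; three in four hits are not shown here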
Beta2AR agonist: agonists of human beta-2 adrenergic receptor inducing internalization; P07550; Am2.2-beta2AR cells, FAP receptor internalization, flow cytometry; reference of the scale not given here; AID 504454; response, % (no concentration beside the values); actives 0.43% (n = 340,000);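 active = response above a set limit, near 3 SD of response in nonfluorescent compounds, cut at about 42% in these data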;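 note: stock transfer was 100 nL into about 11 µL; a reference agonist was the positive control; negative values mostly stem from fluorescent compounds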
Target sequence (P07550 whole entry, looked up): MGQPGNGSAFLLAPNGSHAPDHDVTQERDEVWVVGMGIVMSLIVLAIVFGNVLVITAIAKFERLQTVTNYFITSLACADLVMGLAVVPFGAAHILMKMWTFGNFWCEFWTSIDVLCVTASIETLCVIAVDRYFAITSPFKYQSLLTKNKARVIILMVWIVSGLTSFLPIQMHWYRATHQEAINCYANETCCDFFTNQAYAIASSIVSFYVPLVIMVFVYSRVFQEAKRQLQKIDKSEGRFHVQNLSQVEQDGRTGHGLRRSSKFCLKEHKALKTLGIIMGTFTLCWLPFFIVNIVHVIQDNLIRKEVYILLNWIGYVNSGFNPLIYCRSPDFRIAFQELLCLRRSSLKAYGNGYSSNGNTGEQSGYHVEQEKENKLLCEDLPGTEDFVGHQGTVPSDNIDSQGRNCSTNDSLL
UCH37 inh: inhibitors of human deubiquitinating enzyme UCH37; Q9Y5K5; actives 0.33% (n = 330,000); inhibition, % (no concentration beside the values); purified proteasome/UCH37, Ub-AMC cleavage fluorescence;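 active = mean of two replicates above 20%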;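 note: 0% = compound-free wells with enzyme and 100% = wells lacking proteasome; stock transfer was 100 nL into about 20 µL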
Target sequence (Q9Y5K5 whole entry, looked up): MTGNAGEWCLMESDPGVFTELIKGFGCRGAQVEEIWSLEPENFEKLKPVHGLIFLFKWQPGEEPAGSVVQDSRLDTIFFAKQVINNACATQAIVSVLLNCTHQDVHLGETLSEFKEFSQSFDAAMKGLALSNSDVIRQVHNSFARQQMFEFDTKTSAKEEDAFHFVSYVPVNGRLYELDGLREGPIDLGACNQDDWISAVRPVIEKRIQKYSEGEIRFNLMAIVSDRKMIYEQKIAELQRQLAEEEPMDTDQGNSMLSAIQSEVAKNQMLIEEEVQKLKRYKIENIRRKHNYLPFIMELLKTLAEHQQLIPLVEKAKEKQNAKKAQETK
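Schedule: 30 min plus 25 min, room temperature / Material: human UCH37 within purified proteasomes / Technique: AMC fluorescence intensity at 355/460 nm / Buffer or medium: pH 7.4 Tris-HCl (50 mM) with ovalbumin, ATP-MgCl2, DTT / Controls: wells without proteasome as full block, compound-free enzyme plus substrate as uninhibited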
rRNA inh HTS: inhibitors of bacterial rRNA selective over humanized ribosomes; E. coli WT GFP vs humanized-ribosome RFP mutants, fluorescence, 24 h; hits give low values; DMSO median 0, no signal -100; GFP signal change (wild-type ribosome), % (test concentration not listed); actives 1.6% (n = 350,000); AID 720706;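 active = significant combined selectivity score with lowered wild-type GFP, culture density cut under 30%, mutant RFP and density less affected; inactive = any of these conditions unmet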; note: one replicate is shown; some compounds called inactive have numbers as strong as hits
HNF4A DNA FP: change in binding of human HNF4 alpha to DNA | actives 0.3% (n = 360,000) | HNF4a-FITC DNA binding, fluorescence polarization, 1 h | activity change, % at 10 µM | P41235; in the data active = activity change above about 30%, passing the limit was not always enough;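 note: controls were the assay level and a saturating level of protein; the project sought stronger binding though the title names inhibitors; some compounds called inactive have numbers as strong as hits; positive values seem to mean higher polarization but the record does not say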
ALR H2O2 inh: inhibitors of human sulfhydryl oxidase ALR; P55789; purified ALR, DTT oxidation, H2O2 HRP-luminol luminescence; inhibition, % (test concentration not listed); actives 3.8% (n = 290,000); AID 485317;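 active = mean and each replicate at 75% or more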;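 note: stock transfer was 7.5 nL into about 7.5 µL; 0% = neutral wells and 100% = wells with inactivated enzyme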
Target sequence (P55789 whole entry, looked up): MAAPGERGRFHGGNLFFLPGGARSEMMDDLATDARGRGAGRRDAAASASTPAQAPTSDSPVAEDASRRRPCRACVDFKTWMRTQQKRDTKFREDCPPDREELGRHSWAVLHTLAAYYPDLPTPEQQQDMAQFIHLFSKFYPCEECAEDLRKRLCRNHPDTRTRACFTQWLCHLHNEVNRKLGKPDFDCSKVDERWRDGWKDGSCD
rRNA inh HTS OD600: also measured in rRNA inh HTS; calls as there; OD600 change, %; measured here: OD600 growth;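 optical density of the mix in the first replicate; 0 = DMSO median and -100 = no signal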
rRNA inh HTS RFP: also measured in rRNA inh HTS; calls as there; RFP signal change, %; measured here: RFP humanized mutant strains;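 first replicate; 0 = DMSO median and -100 = no signal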
Active calls of the source: *; i = inactive; / = not tested or not shown. This is a subset; count on the stated rates, not on these rows.

Molecule	rRNA inh HTS	FGF22 binding	E coli growth	HNF4A DNA FP	rRNA inh HTS OD600	UCH37 inh	Beta2AR agonist	ALR H2O2 inh	rRNA inh HTS RFP
O=Nc1c(O)[nH]c2c(F)cccc12	12	i	0.69	-0.3	7	4.6	-3	9	-7.6
Cc1ccc(NC(=O)Cn2cccc2C2=NC(c3ccccc3)CO2)cc1C (configuration not stated)	7	i	0.69	-1.6	8	-0.3	-2	1	1.8
Cc1ccc(C(C)C)cc1OCCN1CCCC1	11	i	0.69	-0.2	9	3.3	-6	-1	-0.2
CCOC(=O)CN1C(=O)N[C@@H](c2ccco2)C(C(=O)OC)=C1C	10	i	/	2.3	12	-2.2	4	4	0.9
COc1ccc(/C=C2\SC(=S)NC2=O)cc1OS(=O)(=O)c1ccc(NC(C)=O)cc1	-42	i	0.68	24	-44	3.5	15	/	-13
COC(=O)c1cn[nH]c1N	/	/	0.69	-0.1	/	0.2	-1	-12	/
Cc1cnc(C(=O)Nc2ccc(N3CCN(C(=O)OC(C)(C)C)CC3)cc2)cn1	/	/	0.72	0.2	/	2.1	-4	-18	/
CCN(CC)S(=O)(=O)c1ccc(C)c(NC(=S)Nc2cccc(S(=O)(=O)N3CCCCCC3)c2)c1	-7	i	0.68	-1.3	-16	2.7	-1	3	0.7
COc1ccc(CCNC(=O)C2CCN(Cc3nc(-c4ccccc4C)oc3C)CC2)cc1OC	/	/	0.72	1.4	/	5.0	0	-8	/
Cc1nc(-c2cccc(NC(=O)c3cc4cc(Br)ccc4oc3=O)c2)cs1	/	/	0.7	2.1	/	-1.7	3	-19	/
O=C(O)C(=O)/C(=C\c1ccc(Cl)cc1)c1ccc2ccccc2n1	30	i	0.66	13	8	-25	12	-3	7.1
Cc1ccc(OCC(=O)Nc2ccc(C)c(F)c2)c([N+](=O)[O-])n1	-9	i	0.61	0.5	-9	0.8	-6	/	-0.9
CC(Sc1nnc(-c2cccnc2)o1)C(=O)NC1CCCCC1 (configuration not stated)	/	i	0.69	2.8	/	1.2	-7	-4	/
COc1ccc(NC(=O)Nc2ccc(OC)c(OC)c2)c([N+](=O)[O-])c1	4	i	0.74	3.9	8	6.4	0	-12	-2.4
Cc1cc2c(cc1[N+](=O)[O-])NC(CNC(C)C)CC2 (configuration not stated)	12	i	0.67	-2.4	14	5.1	1	20	-1.1
Cc1cc(=O)[nH]c(NN=Cc2cc(Br)ccc2O)n1	-3	i	/	-2.7	-25	/	7	/	-10.0
CCOc1nc(NC2CCCC2)nc(N2CCC(C)CC2)n1	-22	i	0.69	-0.7	-32	3.3	-6	/	24
COc1cc(Cl)cc(/C=N/NC(N)=O)c1O	-17	i	/	2.9	-25	/	1	52	-1.8
COC(=O)Cn1cc(/C=N/NC(=O)c2ccc(C#N)cc2F)c2ccccc21	/	/	/	2.7	/	/	1	-29	/
COc1ccc(NC(=S)NCCCN2CCOCC2)cc1	/	i	0.69	-1.4	/	2.5	1	/	/
COc1ccc(N2C(=S)N(C(=O)c3ccccc3)C(=Nc3ccccc3)C2=Nc2ccccc2)cc1	/	/	0.71	0.9	/	11	10	21	/
Cc1c(NC(=O)C2CCCN2S(=O)(=O)c2ccc(Cl)cc2)c(=O)n(-c2ccccc2)n1C (configuration not stated)	/	/	0.64	0.0	/	3.0	-9	0	/
C=CCN1C(=O)C(O)(CC(=O)c2ccc(Cl)cc2)c2ccccc21 (configuration not stated)	/	/	0.74	-0.3	/	-2.2	1	34	/
COc1cccc(C(=O)COC(=O)CCCC(=O)NC2CCCCC2)c1	0	i	0.69	-1.3	4	0.7	-4	0	-1.3
O=C(c1nc[nH]c1C(=O)N1CCc2ccccc2C1)N1CCc2ccccc2C1	1	i	0.7	4.5	-2	-2.3	2	-1	-1.6
COc1ccc(Cl)cc1N(CC(=O)N/N=C/c1ccc(OCC(N)=O)cc1)S(C)(=O)=O	-4	i	/	3.4	-1	/	-3	-9	-1.7
Cc1ccc(NC(=O)C(NS(=O)(=O)c2cccc3nsnc23)C(C)C)nc1 (configuration not stated)	12	i	0.72	4.2	14	3.4	2	/	2.2
S=C1CCC(c2ccc(Cl)cc2)=NN1c1ccccc1	-2	i	0.71	0.0	-1	8.0	25	-3	-0.4
CCOc1ccc(CN2CCNC(=O)C2CC(=O)N(C)Cc2nonc2C)cc1 (configuration not stated)	1	i	0.7	-1.8	9	1.2	5	-18	-0.9
CN(C)S(=O)(=O)c1cccc(NC(=O)COC(=O)CCSc2ccc(Cl)cc2)c1	/	/	0.65	0.8	/	6.9	8	-1	/
COc1ccc(-n2cc(CNCCN3CCOC3=O)c(-c3ccccc3Cl)n2)cc1	-1	i	0.7	1.9	-4	2.7	0	-3	2.1
COc1ccc(C2=Nn3c(C)nnc3SC2)cc1	6	i	0.72	-0.1	7	2.9	-2	-6	-0.4
O=C(O)CCCN1C(=O)C2C3CCC(C3)C2C1=O (configuration not stated)	3	i	/	3.1	12	/	/	/	1.6
NS(=O)(=O)c1ccc(-c2ccc(C=O)o2)cc1	9	i	0.72	1.0	-4	5.4	-6	-13	1.7
CCS(=O)(=O)c1ccc(O)c(NC(=O)Nc2cccc3ccccc23)c1	-15	i	0.62	4.0	-10	1.9	3	4	-2.2
O=C(CCCSc1ccc(Cl)cc1)Nc1cc(S(=O)(=O)N2CCOCC2)ccc1O	-40	i	0.66	1.1	-57	-1.7	7	5	-10
O=C(NCC(F)(F)F)Nc1ncccn1	/	/	0.79	-2.1	/	-1.0	-5	-1	/
COc1ccc(S(=O)(=O)N2CCOC23CCN(S(=O)(=O)c2ccccc2)CC3)cc1	5	i	0.61	0.6	6	4.7	0	15	1.1
O=C(Nc1cccnc1)c1ccc2nc(-c3ccccc3)c(-c3ccccc3)nc2c1	-25	i	0.71	-2.5	-32	-1.0	3	/	-1.1
CCCCCOc1ccccc1C(=O)NCC(=O)O	/	/	0.7	2.0	/	4.1	0	/	/
COc1cc(NC(=O)CSc2nc(C)c(C)c(C)n2)cc(OC)c1	-12	i	0.68	-5.4	3	-0.1	-6	/	1.9
COc1ccc(NC(=O)/C=C/c2ccccc2)cn1	/	/	0.61	-2.3	/	6.6	14	-20	/
C=CCOC(=O)C1=C[C@@H](c2csc3ccccc23)[C@H](CCCO)[C@@H](OCC)O1	/	/	/	4.4	/	1.8	14	-13	/
CC1CCN(S(=O)(=O)c2ccc3c(ccn3CCC(=O)NC(C)C)c2)CC1	0	i	0.73	-6.3	5	4.4	5	-9	-1.3
Cc1ccc(C(=O)NCC(=O)OC(C)C(=O)Nc2ccc(N(C)C)cc2)s1 (configuration not stated)	-12	i	0.68	-0.3	1	-0.4	6	99*	0.6
COC/C=C/C1=CC2=CC(=O)C(C)(OC(=O)c3cnc4ccccc4n3)C(=O)C2=CN1CC1CC1 (configuration not stated)	/	/	/	-7.3	/	41*	20	-14	/
O/N=C(/CN(O)/C=C1/C=CC=N1)c1cccs1	/	/	/	0.3	/	/	-2	10	/
O=C1NC2(CCCCC2)C(=O)N1CCN1C(=O)c2ccccc2C1=O	/	/	0.68	-1.3	/	1.3	7	-9	/
O=C(CCS(=O)(=O)c1ccc(Cl)cc1)Nc1nnc(-c2ccco2)o1	9	i	0.55	-1.5	9	0.5	2	1	0.2
O=C1C=CC(=O)C(CNc2ccc(C(=O)OCc3ccccc3)cc2)=C1	/	i	/	5.3	/	/	16	/	/

Next part, overlapping the part above by 4 compounds.
Molecule	rRNA inh HTS	FGF22 binding	E coli growth	HNF4A DNA FP	rRNA inh HTS OD600	UCH37 inh	Beta2AR agonist	ALR H2O2 inh	rRNA inh HTS RFP
O/N=C(/CN(O)/C=C1/C=CC=N1)c1cccs1	/	/	/	0.3	/	/	-2	10	/
O=C1NC2(CCCCC2)C(=O)N1CCN1C(=O)c2ccccc2C1=O	/	/	0.68	-1.3	/	1.3	7	-9	/
O=C(CCS(=O)(=O)c1ccc(Cl)cc1)Nc1nnc(-c2ccco2)o1	9	i	0.55	-1.5	9	0.5	2	1	0.2
O=C1C=CC(=O)C(CNc2ccc(C(=O)OCc3ccccc3)cc2)=C1	/	i	/	5.3	/	/	16	/	/
CC(C)c1nnc(NC(=O)CCC(=O)NC2CCCCCCC2)s1	/	/	0.67	-0.7	/	0.4	8	-3	/
COc1cccc(-c2cccc(NC(=O)C3CCN(Cc4ccon4)CC3)c2)c1	-1	i	0.7	1.2	9	1.0	0	1	-0.2
CC(=O)C(Cc1cnc(Cl)s1)(Cc1cnc(Cl)s1)C(C)=O	/	/	0.74	-0.7	/	4.5	-6	-9	/
NC[C@H]1O[C@H](O[C@H]2[C@H](O)[C@@H](O[C@H]3O[C@H](CO)[C@@H](O)[C@H](N)[C@H]3O)[C@H](N)C[C@@H]2N)[C@H](N)C[C@@H]1O	/	/	/	-6.2	/	1.1	0	/	/
Cn1cnnc1SCC(=O)Nc1ccc(Cl)cn1	13	i	0.68	0.2	6	1.6	7	1	-2.1
CN(CC(=O)O/N=C(\N)c1ccccn1)S(=O)(=O)c1cc(Cl)ccc1Cl	/	/	0.7	3.0	/	-0.6	1	1	/
COc1ccc(OC)c(C2CC(=O)c3c([nH]c(C(=O)OCC4CCCO4)c3C)C2)c1 (configuration not stated)	-3	i	0.75	2.1	-5	6.2	-6	-5	0.6
COc1ccccc1NC(=O)CCCc1nc(-c2ccc(OC)c(OC)c2)no1	-20	i	0.68	2.5	-13	1.0	0	/	-4.8
O=C(OC1CCOC1=O)c1cc(Cl)ccc1[N+](=O)[O-] (configuration not stated)	4	i	/	-4.7	3	/	9	-5	0.8
O=C(c1oc(=O)c2ccccc2c1-c1ccccc1)N1CCN(C2CCCCC2)CC1	-21	i	0.75	-0.2	-42	1.6	1	-2	-2.7
CC(C)(C)c1ccccc1OCCN1CCCC1	14	i	0.7	1.1	5	1.9	0	-3	1.5
CCOC(=O)C1=C(Nc2ccc(OC)cc2)C(N)=NC1=N	8	i	/	2.4	16	/	/	/	0.0
COc1ccc(Cl)cc1N(CC(=O)NC(C(C)C)C(C)C)S(C)(=O)=O	/	/	0.66	0.9	/	3.9	-8	7	/
CSCCC(NC(=O)COc1ccccc1)C(=O)Nc1ccc(C)cc1 (configuration not stated)	/	/	0.69	-1.2	/	2.3	11	3	/
O=C1OCC2=C1C(c1ccccc1)CC(=O)N2c1ccccc1 (configuration not stated)	/	i	0.67	2.8	/	0.7	-8	3	/
O=C(c1ccco1)N1CCN(C(=O)C2Cc3ccccc3CN2S(=O)(=O)c2ccc(F)cc2)CC1 (configuration not stated)	/	/	0.76	-0.9	/	1.5	1	-12	/

3 entries out of the list above, arranged by their value in rRNA inh HTS OD600, high to low.
Compound	rRNA inh HTS	FGF22 binding	HNF4A DNA FP	rRNA inh HTS OD600	UCH37 inh	Beta2AR agonist	ALR H2O2 inh	rRNA inh HTS RFP
CCOC(=O)C1=C(Nc2ccc(OC)cc2)C(N)=NC1=N	8	i	2.4	16	/	/	/	0.0
CC(C)(C)c1ccccc1OCCN1CCCC1	14	i	1.1	5	1.9	0	-3	1.5
O=C(OC1CCOC1=O)c1cc(Cl)ccc1[N+](=O)[O-] (configuration not stated)	4	i	-4.7	3	/	9	-5	0.8
